Source: PubChem BioAssay (several laboratories)
PABP polyA inh – blocks human PABP binding to poly(A) RNA; fluorescence polarization; inhibition, % at 35 µM; hit rate 1% among 290,000;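 active = 50% or more with normal probe brightness, or confirmed in later tests; inconclusive = above 50% with abnormal brightness, or retests that disagree; inactive = below 50% or failed in later tests; about a fifth of its hits are not listed in these tables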;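 note: calls also rest on retests at 20 µM and on dose response follow-up; controls were probe without protein and protein plus probe with vehicle; some compounds called inactive have numbers as strong as hits; many hits fall short of the cut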
HIV Env fusion – HIV envelope-mediated fusion inhibition; AID 651610; inhibition, % at 12.3 µM; HeLa-JRFL Env/CEM21 cell fusion, luciferase; hit rate 1.1% among 360,000;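 active = mean replicate inhibition score of at least 50 and every replicate individually at or above 50; inconclusive = only one of the two criteria met; inactive = mean below 50 and not all replicates reaching 50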;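 note: 0% = plate neutral controls and 100% = maraviroc near 300 nM; one replicate is shown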
CSC inhib – blocks cancer stem cells; cancer stem cell-like cells viability, luminescence; inhibition, % at 7.5 µM; hit rate 1.1% among 300,000; AID 2717;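 active = mean at 75% or more and at least half the replicates too; inconclusive = mean and replicates disagree; tested in HMLE shEcad cells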;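 note: 0% = median of negative and 100% = median of positive control wells; the first replicate is given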
MT1-MMP act inh – blocks activation of human MT1-MMP | HT1080 RFP-PRO-GFP cells, GFP/RFP ratio fluorescence, overnight; percent of plate control window, DMSO zero | GFP/RFP ratio change, % at 20 µM | AID 651647 | hit rate 0.061% among 360,000;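 active = GFP/RFP ratio change of at least 30% with cell ATP level not reduced by more than half and red fluorescence within 50% of control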; note: strong numbers were not always called active
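Assay system: HT1080 cells carrying an RFP-PRO-GFP reporter | Dosing: Single dose of 20 µM compound, 1% DMSO final | Incubation: Cells overnight before dosing, compound overnight, 37 °C, 5% CO2 | Evaluation: GFP/RFP fluorescence ratio | Control set: DMSO and RFP-L50D-GFP cell wells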
Rce1 inhib – yeast Ras-converting enzyme inhibition; Q03530; yeast membranes, quenched prenylated peptide cleavage fluorescence; calls only; hit rate 0.27% among 290,000;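 active = fall in fluorescence gain of 50% or more versus controls, with final raw signal at or below 3038400; inconclusive = same 50% fall but final raw signal above 3038400; inactive = fall in fluorescence gain under 50%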;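 note: plate controls were neutral control wells for no effect and wells lacking membranes for full effect; tested at 10 µM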
Target sequence (Q03530 whole entry, looked up): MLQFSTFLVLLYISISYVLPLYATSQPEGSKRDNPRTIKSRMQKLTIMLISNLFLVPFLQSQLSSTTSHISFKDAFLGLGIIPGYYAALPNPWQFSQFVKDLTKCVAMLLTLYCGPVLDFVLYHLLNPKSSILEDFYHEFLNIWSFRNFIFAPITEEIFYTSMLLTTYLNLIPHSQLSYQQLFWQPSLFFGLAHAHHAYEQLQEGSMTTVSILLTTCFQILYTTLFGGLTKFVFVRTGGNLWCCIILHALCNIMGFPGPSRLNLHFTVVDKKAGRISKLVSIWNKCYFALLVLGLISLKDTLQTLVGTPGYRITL
UUG fidelity – modulators of start codon recognition fidelity in yeast | S. cerevisiae UUG-firefly luciferase reporter, luminescence/redox ratio | activity score, % at 18.7 µM | hit rate 0.13% among 350,000 | AID 602363;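 active = replicate mean at a twofold rise or more, about +100% in these data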;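 note: firefly luciferase made from a UUG start codon reports start codon fidelity; reporter light over untreated wells divided by growth signal over untreated wells; some hits fall short of that in this replicate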
eIF4H FP inh – inhibitors of RNA binding by human eIF4H | Q15056 | eIF4H fluorescence polarization binding assay | inhibition, % at 35 µM | hit rate 0.94% among 290,000 | AID 2012;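 active = 50% or more with normal probe brightness, or confirmed in later tests; inconclusive = above 50% with abnormal brightness, or retests that disagree; inactive = below 50% or failed in later tests; about a fifth of its hits are not listed in these tables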;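 note: calls also rest on retests at 20 µM and on dose response follow-up; 0% = protein and probe with vehicle and 100% = probe without protein; strong numbers were not always called active; many hits fall short of the cut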
eIF4H FP inh retest – also measured in eIF4H FP inh; calls as there; inhibition, %; compound at 20 µM; confirmation average;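 mean of two retest wells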
PABP polyA inh retest – recorded beside PABP polyA inh, whose call it bears; inhibition, %; compound at 20 µM; confirmation repeats;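 mean of two retest wells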
MT1-MMP act inh RFP – also measured in MT1-MMP act inh; calls as there; RFP signal change, %; measured here: RFP expression control read;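 0 = vehicle wells; hits needed this value within 50% of zero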
Starred values were filed as active, the others as inactive; i = inactive; ? = inconclusive; nt = no result given; & = joins results of further samples.

SMILES	PABP polyA inh	HIV Env fusion	CSC inhib	MT1-MMP act inh	MT1-MMP act inh RFP	Rce1 inhib	UUG fidelity	eIF4H FP inh	others
COc1ccc(-c2cnnn2-c2ccc(NC(=O)c3ccco3)cc2)cc1OC	-8	-20	2	3	3	i	-12	10
O=C1OCC/C1=C1/NCCNC1=O	nt	12	nt	8	1	nt	-10	nt
N#C/C(=C\c1ccc(N2CCCCC2)c([N+](=O)[O-])c1)c1nn(-c2ccccc2)c(N)c1C#N	3	6	58	-1	1	i	-20	8
CCCC1=C(C(=O)OCC)C(c2ccc(OC)c(CSc3ccccn3)c2)C(C#N)=C(N)O1 (centres undefined)	-20	nt	nt	2	1	i	nt	-15
O=C(NCC1CCN(Cc2ccccc2Cl)CC1)Nc1cccc(Cl)c1	2	6	4	6	2	i	-10	10
CNc1ccccc1C(C)(C)c1cn(-c2ccc([N+](=O)[O-])cc2)nn1	8	1	-17	0	1	nt	-5	-11
CC(SCc1ccccc1)C(=O)N/N=C/c1ccc(OCC(=O)NCc2ccco2)cc1 (centres undefined)	7	24	3	-6	-5	i	-1	-4
COCCNC(=O)/C(C#N)=C/c1ccc(-c2ccc(S(=O)(=O)N3CCOCC3)cc2)o1	?	nt	-8	-10	-5	i	nt	8
CC(=O)c1cccc(OCC(=O)OCC(=O)Nc2cc(S(=O)(=O)N3CCCCC3)ccc2C)c1	nt	-69	3	-1	4	nt	-20	nt
C[C@@H]1CCCCO[C@@H](CN(C)S(=O)(=O)c2ccccc2)[C@@H](C)CN([C@H](C)CO)C(=O)c2cc(N(C)C)ccc2O1	nt	-5	nt	1	2	nt	-10	nt
Cc1cc(C)cc(-n2ncc3c2CCCC3NC(=O)CCN2CCCC2=O)c1 (centres undefined)	-2	12	-10	-1	-2	i	10	-17
CC(Oc1cccc(Cl)c1)C(=O)Nc1ccccc1N1CCCCC1 (centres undefined)	nt	?	36	3	-4	i	-2	nt
O=C(CN(Cc1ccccc1Cl)C(=O)c1ccc(CN2CCOCC2)o1)NCC1CCCO1 (centres undefined)	4	-66	nt	3	6	i	5	-11
COc1cc(-c2nnn(CC(=O)N3CCOCC3)n2)cc(OC)c1OC	9	5	7	2	1	i	-5	-5
CCCCOC(=O)CSc1nc2ccccc2o1	3	0	-1	-1	-2	i	-23	4
Cc1c[nH]c(=O)c([N+](=O)[O-])c1	5	-1	-2	6	9	i	nt	5
CCOC(=O)C/C(C)=N/NC(=O)COc1ccccc1C	2	-10	-20	0	7	i	-16	-1
OC(COc1cccc2ccccc12)CN1CCN(c2ccc(Cl)cc2)CC1 (centres undefined)	7&2	16	77*	2	5	i	-8	-4&-10
COc1ccc(-c2nc(NC(=O)c3[nH]c(C)c(C(C)=O)c3C)sc2C)cc1	-9	-21	0	-27	-25	i	nt	0
Cc1onc(-c2ccccc2)c1C(=O)N/N=C/C(Br)=C/c1ccccc1	0	2	12	-1	-21	i	nt	6

Next part; it opens with the 4 that closed the last part.
SMILES	PABP polyA inh	HIV Env fusion	CSC inhib	MT1-MMP act inh	MT1-MMP act inh RFP	Rce1 inhib	UUG fidelity	eIF4H FP inh	others
CCOC(=O)C/C(C)=N/NC(=O)COc1ccccc1C	2	-10	-20	0	7	i	-16	-1
OC(COc1cccc2ccccc12)CN1CCN(c2ccc(Cl)cc2)CC1 (centres undefined)	7&2	16	77*	2	5	i	-8	-4&-10
COc1ccc(-c2nc(NC(=O)c3[nH]c(C)c(C(C)=O)c3C)sc2C)cc1	-9	-21	0	-27	-25	i	nt	0
Cc1onc(-c2ccccc2)c1C(=O)N/N=C/C(Br)=C/c1ccccc1	0	2	12	-1	-21	i	nt	6
CN(C)Cc1c[nH]c2nccnc12	nt	-27	nt	9	9	nt	-20	nt
O=C1[C@@H]2[C@@H]3C[C@@H]([C@H]4ON=C(c5ccc(OCc6ccccc6)cc5)[C@@H]34)[C@@H]2C(=O)N1c1ccc2c(c1)OCO2	5	9	-1	-1	-3	i	nt	-3
CC(C)(C)S(=O)N1Cc2cn(Cc3ccccc3)c(=O)cc2[C@H]1CCO (some centres undefined)	nt	-21	nt	1	4	nt	-29	nt
COc1ccc(C2=CSC(/N=C/c3ccc(F)cc3)=NN2)cc1	5	nt	nt	4	-4	i	-2	76	eIF4H FP inh retest=-1;PABP polyA inh retest=6
Cc1ccc(C(c2nnnn2Cc2ccccc2)N2CCN(Cc3ccccc3)CC2)cc1 (centres undefined)	5	nt	18	-15	-16	i	-3	-12
O=C(OCC(=O)N(C1CCCCC1)C1CCCCC1)c1ccncc1	-8	nt	2	-12	2	i	-1	-5
Cc1ccc(OCCCC(=O)N2CCN(S(=O)(=O)c3cccc(F)c3)CC2)cc1	nt	-11	-12	-3	-4	i	nt	nt
Cc1ccc2cc(CN(CCCN3CCOCC3)C(c3nnnn3Cc3ccco3)C(C)C)c(=O)[nH]c2c1C (centres undefined)	nt	nt	2	-12	-12	i	4	nt
CC(=O)Nc1ccc(NC(=O)c2cccc(-c3cc4ccccc4oc3=O)c2)cc1	-8	-3	-10	2	-4	i	-19	-15
COc1ccc(OC)c(NC(=O)Nc2nnc(COCCO)s2)c1	nt	-7	nt	-1	4	nt	-11	nt
Cn1c(SCC(=O)N2CCN(S(=O)(=O)c3ccc(Cl)cc3)CC2)nc2ccccc21	6	-60	-1	5	-1	i	-15	6
COc1cccc(OCc2cc(/C=N/NC(=O)c3nc(Cl)c(Cl)c(N)c3Cl)ccc2OC)c1	42	nt	-12	5	-1	i	nt	9
CCCc1cc(=O)n2[nH]c(C)c(-c3ccc(Cl)cc3)c2n1	-3	9	34	0	3	nt	-10	11
COc1cc(CNC(C)(C)CO)ccc1OCC(=O)NC(C)(C)C	6	-13	-4	5	10	i	nt	2
Cc1c(CN2CCCCC2)c(O)n(CCCO)c(=O)c1C#N	?	nt	-10	-11	6	i	-3	?
CCCc1cc(=O)oc2cc(OCC(=O)NCCCN3CCCC3=O)ccc12	-2	7	-11	2	0	i	-5	4
NC(=O)CC(NC(=O)Cc1ccc(Br)cc1)c1ccc(N2CCN(c3ccc(F)cc3)CC2)c([N+](=O)[O-])c1 (centres undefined)	10	22	38	6	-12	i	-16	-2
Cc1ccc(NC(=O)CSc2nnc(-c3ccco3)c(-c3ccco3)n2)cc1	89*	-51	-15	-38	-21	i	1	100*
O=C(CN1CCN(Cc2ccccc2F)C1=O)NCCN1CCOCC1	-1	18	-9	1	3	i	-12	2
CC(=O)N=Cc1c(C)c(C#N)c(=O)n(C)c1O	-10	-8	nt	-4	6	i	nt	?

Continued, starting with the last 3 of the part before.
SMILES	PABP polyA inh	HIV Env fusion	CSC inhib	MT1-MMP act inh	MT1-MMP act inh RFP	Rce1 inhib	UUG fidelity	eIF4H FP inh	others
Cc1ccc(NC(=O)CSc2nnc(-c3ccco3)c(-c3ccco3)n2)cc1	89*	-51	-15	-38	-21	i	1	100*
O=C(CN1CCN(Cc2ccccc2F)C1=O)NCCN1CCOCC1	-1	18	-9	1	3	i	-12	2
CC(=O)N=Cc1c(C)c(C#N)c(=O)n(C)c1O	-10	-8	nt	-4	6	i	nt	?
COc1ccc(-c2[nH]ncc2/C=C(/C#N)C(=O)NC2CCCCCC2)cc1	6	nt	-6	-3	-10	i	-7	1
CN(C)CCC(=O)c1ccc2c(c1)OCO2	9	-41	7	-2	2	i	-5	-3
Cn1cnc2c1c(=O)n(Cc1c(Cl)cccc1Cl)c(=O)n2C	-3	-117	-7	3	3	i	-10	2
O=C(CSc1ccc([N+](=O)[O-])cn1)Nc1cc(C(F)(F)F)ccc1N1CCOCC1	5	41	1	-2	-9	i	-2	-15
CCSc1nnc(NC(=O)c2cc(C)on2)s1	4	-93	-2	3	4	i	-6	8
CCN(/N=C/c1ccc(Cl)cc1)c1cc(=O)n(C)c(=O)[nH]1	-5	-7	nt	2	-1	i	nt	0
O=C(Cn1cccn1)c1ccccc1	54	-5	-10	0	3	i	nt	5	eIF4H FP inh retest=2;PABP polyA inh retest=-2
CCCNC(=O)c1cccc(Cn2nc(C)c(Br)c2C)c1	4	-34	4	0	-4	i	-15	7
O=C(O)C1CCCN(S(=O)(=O)c2cccc3cccnc23)C1 (centres undefined)	-8	-13	-9	-1	6	i	-12	9
NC(=O)CN1CCCN(S(=O)(=O)c2ccc(Br)cc2)CC1	-6	nt	nt	0	5	i	-20	8
C#CCSc1nnc(-c2sc3ccccc3c2Cl)o1	-4	-248	11	-1	2	i	-18	-2
CCC(C)(C(=O)NC1CCCCC1)N(C(=O)CC1NC(=O)NC1=O)c1c(C)n(C)n(-c2ccccc2)c1=O (centres undefined)	25	3	-6	-4	-2	i	0	-6
OCC[C@@H]1NCc2cc(CO)cc(-c3ccccc3)c21	nt	-4	nt	-5	-3	nt	-13	nt
Cc1ccc(NC(=O)COC(=O)c2cc(-c3cccs3)nn2-c2ccccc2)cc1[N+](=O)[O-]	4	-82	-3	0	0	i	9	-13
O=C(O)CNC(=S)N(Cc1ccccc1F)C1CCCCC1	7	5	-3	-1	-1	i	nt	2
Cc1noc(C(=O)NCc2ccccc2)c1Cl	-7	9	-12	-1	4	i	10	-6
CN1CCN(c2ccc([N+](=O)[O-])cc2C(=O)N2CCOCC2)CC1	-6	20	-4	0	3	i	-21	1
COCCCNC(=O)/C(C#N)=C/c1ccc(OCC(=O)O)c(OC)c1	-2	-1	-4	2	7	i	-13	102	eIF4H FP inh retest=37;PABP polyA inh retest=27
Cc1cccn2c(=O)c(C=O)c(N3CCN(c4ccccc4)CC3)nc12	?	-82	-16	-3	-2	i	nt	?
COC(=O)c1cc(NC(=O)C23CCC(C)(C(=O)O2)C3(C)C)cc(C(=O)OC)c1 (centres undefined)	0	-140	3	1	-2	i	-27	3
CCCn1c(C(C)Nc2nc(-c3ccc(C)cc3)cs2)nc2ccccc21 (centres undefined)	2	nt	nt	-7	0	i	-16	-2
COc1cc(/C=N\NC(=O)c2ccc(Cn3cc(Br)c([N+](=O)[O-])n3)o2)cc(OC)c1O	10	nt	13	-2	-2	i	5	13
COC(=O)c1c(-c2ccc(SC)cc2)sc2ccc(OC)cc12	nt	-153	27	0	-3	nt	-3	nt
C=CCn1c(SCC(=O)c2ccc(Br)cc2)nnc1C(C)NC(=O)Cc1ccc(OC)cc1 (centres undefined)	4	nt	3	2	-1	i	-1	5

An excerpt. The share of hits here may be higher or lower than overall.
